VCAM-1 rise: enhancers of VCAM-1 display on endothelial cells, cell-based, plate reader, pooled HUVEC, TNFa stimulus (AID 455); HUVEC TNFa-induced VCAM-1 immunofluorescence, plate reader; numbers were filed only for top-ranked candidate wells; 10,000 compounds, 0.2% hits; augmentation, % at 5 µM;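 active = a compound raising TNF-alpha-driven VCAM-1 surface staining, with its hit status upheld on visual or statistical review; inactive = the rest, including hits rejected on review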;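 also: 0% = TNFa with vehicle and 100% = strongest image-checked hit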
26S disassembly: blocks ATP-dependent breakdown of the yeast 26S proteasome; anti-FLAG beads, GFP-proteasome disassembly, flow cytometry; AID 751; 24,000 compounds, 0.2% hits; inhibition of disassembly, % (concentration not given with the values);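 active = above 40%; inconclusive = likely self-fluorescent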;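 also: plate controls were ATP control with full disassembly for no effect and ATP-gamma-S intact proteasomes for full effect; higher percent means more bead fluorescence retained so stronger block of disassembly; stock transfer was 100 nL into about 10 µL; wells with too few beads may also be inconclusive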
* = called active by the depositor. This is a subset; the hit share may differ from the screen's.

Cc1nc2c(C(=O)NCc3ccc4c(c3)OCO4)c[nH]n2c(=O)c1Cc1ccccc1F was read as 26S disassembly 5.1.
Screening CCCSc1nc2c(cnn2-c2ccc(C)cc2)c(=O)[nH]1 returned VCAM-1 rise inactive and 26S disassembly -0.4.
`CCOC(=O)C1(C(F)(F)F)N=C(N(C)C)OC(N(C)C)=N1` gave 26S disassembly -0.8.
COc1ccc(Nc2ncnc3c2cnn3-c2ccccc2)cc1OC was read as VCAM-1 rise inactive and 26S disassembly 0.5.
Screening CCc1cccc(NC(=O)CN(c2ccc(OC)cc2)S(=O)(=O)c2c(C)n[nH]c2C)c1 returned 26S disassembly -0.8.
For Cc1ccnc(NC2c3ccccc3C(=O)N2Cc2ccccc2Cl)c1 (configuration not stated) the results were 26S disassembly -1.0.
`CCN1C(=O)c2ccccc2S(=O)(=O)c2ccc(C(=O)NCc3cccnc3)cc21` gave VCAM-1 rise inactive and 26S disassembly -1.2.
For COc1ccc(CCNC(=O)CSc2nnc(CNC(=O)c3cccs3)o2)cc1OC the results were 26S disassembly 0.8.
For CC(=O)Cc1nsc(NC(=O)c2ccc(Br)o2)n1 the results were 26S disassembly 0.5.
For O=C(Nc1cnn(C23CC4CC(CC(C4)C2)C3)c1)c1cnn2c(C(F)(F)F)cc(-c3ccco3)nc12 the results were VCAM-1 rise inactive and 26S disassembly -3.3.
`O=C(Cn1cc2c(n1)CCCCC2)NCCCN1CCOCC1` gave 26S disassembly 1.2.
Screening Cc1oc2cc(OCC(=O)O)ccc2c(=O)c1Oc1ccccc1 returned 26S disassembly 2.2.
Screening Cc1[nH]nc2c1C1(CCN(C(=O)c3ccccc3)CC1)C(C#N)=C(N)O2 returned VCAM-1 rise inactive and 26S disassembly -4.1.
For CCOc1ccc(Cc2nc(C)c(CC(=O)N3CCCCC3)c(=O)[nH]2)cc1 the results were 26S disassembly 0.2.
For O=C(O)c1cnn(-c2ccccc2)c1-n1cccc1 the results were 26S disassembly -1.0.
Cc1ccc(C)c(NC(=O)CSc2nnc(-c3ccccc3)o2)c1 was read as VCAM-1 rise inactive and 26S disassembly -1.4.
`CCC(CC)C(=O)NCCc1cc2ccc(C)cc2[nH]c1=O` gave VCAM-1 rise inactive and 26S disassembly -0.7.
`Cc1ccc(/C=N/n2nnnc2N)o1` gave VCAM-1 rise inactive and 26S disassembly -0.2.
O=C(c1cc2nc3c(c(C(F)(F)F)n2n1)CCc1ccccc1-3)N1CCN2CCCC2C1 (configuration not stated) was read as 26S disassembly 9.5.
O=C(NC1CCCCC1)C(c1ccccc1)N1CCCC1 (configuration not stated) was read as 26S disassembly 0.4.
Screening COC(=O)c1cc2occc2n1CC(=O)Nc1ccc(OC)c(OC)c1OC returned 26S disassembly inconclusive.
Screening COc1ccc(OCCCC(=O)Nc2ccc3c(c2)OCCO3)cc1 returned VCAM-1 rise inactive and 26S disassembly 1.4.
O=C(c1ccc2nc(N3CCCCC3)sc2c1)N1CCN(c2ccccn2)CC1 was read as VCAM-1 rise inactive and 26S disassembly -2.4.
COC(=O)C(NC(C)=O)(Nc1nc2ccc(S(C)(=O)=O)cc2s1)C(F)(F)F (configuration not stated) was read as VCAM-1 rise inactive and 26S disassembly 2.1.
For COC(=O)Nc1ccccc1C(=O)N1CCCCC1 the results were VCAM-1 rise inactive and 26S disassembly 0.3.
CCOC(=O)N1CCN(C(=O)c2cnn(-c3ccccc3)c2NC(=O)c2ccccc2F)CC1 was read as VCAM-1 rise inactive and 26S disassembly -0.6.
For CCOc1cc2c(cc1OCC)C(c1cc(OC)c(O)c(OC)c1)NCC2 (configuration not stated) the results were 26S disassembly 2.3.
For CC1CCN(CCCNC(=O)C2CCC(=O)N2C2CCCC2)CC1 (configuration not stated) the results were 26S disassembly 1.1.
Screening O=C(O)c1[nH]c2ccc(Cl)cc2c1CC(=O)N1CCN(C(=O)c2ccco2)CC1 returned VCAM-1 rise inactive and 26S disassembly 0.1.
Screening CCOC(=O)N1CCC(c2cc(=O)n3[nH]cc(C(=O)OC)c3n2)CC1 returned VCAM-1 rise inactive and 26S disassembly -0.6.
`CCOC(=O)N1CCN(C(=O)C2CCN(S(=O)(=O)N(CC)CC)CC2)CC1` gave 26S disassembly 1.2.
`COc1ccccc1S(=O)(=O)Cc1ccc(C(=O)NCc2ccc3c(c2)OCO3)o1` gave 26S disassembly 2.0.
COC(=O)c1nnn(CC(=O)Nc2cccc(OC)c2)c1C(=O)OC was read as 26S disassembly 0.2.
O=C(CSc1ncnc2ccccc12)N1CCN(c2ccccc2)CC1 was read as VCAM-1 rise inactive and 26S disassembly 0.6.
`COc1ccc(NC(=O)c2cc3cc(OC)ccc3oc2=N)cc1` gave 26S disassembly -0.7.
`CC1(C)CC(=O)C2=C(C1)Nc1nc(SCCN3CCOCC3)[nH]c(=O)c1C2c1cccs1` (configuration not stated) gave VCAM-1 rise inactive and 26S disassembly 1.6.
Screening CC(C)c1ccc(C2CC(=O)N3CN(C)CSC3=C2C#N)cc1 (configuration not stated) returned 26S disassembly -0.9.
Screening CCCCN(Cc1cc2cc(OC)ccc2[nH]c1=O)C(=O)COc1ccccc1 returned VCAM-1 rise inactive and 26S disassembly 4.6.
Screening CCc1ccc(-c2nc(CN3CCC(C(=O)NCc4ccco4)CC3)c(C)o2)cc1 returned 26S disassembly 0.9.
Cc1nc(NS(=O)(=O)c2ccccc2)sc1NC(=O)OC(C)C was read as VCAM-1 rise inactive and 26S disassembly -0.7.
CCn1c(C(=O)N2CCC(C(=O)N3CCN(c4ccccn4)CC3)CC2)cc2sccc21 was read as VCAM-1 rise inactive and 26S disassembly 0.7.
Screening CCN1CCCC1CNC(=O)c1cc2c(-c3cccc(OC)c3)nn(C)c2s1 (configuration not stated) returned 26S disassembly 17.
For COC(=O)c1cc2ccsc2n1CC(=O)N(C)c1ccccc1 the results were VCAM-1 rise inactive and 26S disassembly 0.2.
CCOC(=O)CN1CC23C=CC(O2)C(C(=O)NC2CCCCC2)C3C1=O (configuration not stated) was read as 26S disassembly 0.9.
For COc1ccc(CCNS(=O)(=O)c2cccc(C(=O)O)c2)cc1OC the results were 26S disassembly -2.1.
For COc1ccc(CN2CC(C(=O)NCc3cccc(OC)c3)CC2=O)cc1 (configuration not stated) the results were 26S disassembly -0.2.
For Cc1cc(NC(=O)CSc2nc3ccccc3c(=O)n2CCCC(=O)NCc2ccco2)n[nH]1 the results were 26S disassembly 0.8.
For COc1ccc(C(=O)Nc2ccc(N3CCN(c4ccc(OC)cc4)CC3)c(C#N)c2)cc1 the results were 26S disassembly 1.9.

Quoted at random: 3 entries already listed, in no set order.
For COc1ccc(CN2CC(C(=O)NCc3cccc(OC)c3)CC2=O)cc1 (configuration not stated) the results were 26S disassembly -0.2.
Cc1nc(NS(=O)(=O)c2ccccc2)sc1NC(=O)OC(C)C was read as VCAM-1 rise inactive and 26S disassembly -0.7.
CCOC(=O)CN1CC23C=CC(O2)C(C(=O)NC2CCCCC2)C3C1=O (configuration not stated) was read as 26S disassembly 0.9.

(more compounds)
Screening O=C(NCc1ccccn1)c1cccs1 returned VCAM-1 rise inactive and 26S disassembly 0.5.
CC(CCc1ccccc1)NC(=O)CN1CCN(Cc2ccccc2)C1=O (configuration not stated) was read as 26S disassembly -0.2.
`CCOc1ccccc1OCC(=O)NCc1ccco1` gave VCAM-1 rise inactive and 26S disassembly 3.1.
Screening COc1cccc(-n2ccnc2SCC(=O)NCc2ccccc2)c1 returned 26S disassembly 3.9.
For CN(C)CCCNC(CC(=O)Nc1ccc(Cl)cc1)C(=O)O (configuration not stated) the results were 26S disassembly 1.4.
CCOC(=O)c1ccc(NC(=O)C2CCN(S(=O)(=O)c3ccccc3)CC2)cc1 was read as 26S disassembly 0.1.
O=C1CC2CS(=O)(=O)CC2N1C1CCCCC1 (configuration not stated) was read as 26S disassembly 0.1.
Screening CCOC(=O)N1CCC(NC(=O)c2sc3nc4n(c(=O)c3c2C)CCCC4)CC1 returned 26S disassembly 0.5.
Screening CC1CCCC(NC(=O)CSc2ncccc2C(=O)O)C1C (configuration not stated) returned VCAM-1 rise inactive and 26S disassembly 1.4.
COc1ccc(N(CC(=O)Nc2cccc(C(=O)O)c2)S(=O)(=O)c2c(C)noc2C)cc1 was read as 26S disassembly -0.1.
`O=C(Cn1c(=O)[nH]c2ccsc2c1=O)N1CCN(c2ccc(F)cc2)CC1` gave VCAM-1 rise inactive and 26S disassembly -1.2.
`CC(C)(C)Cc1nc(-c2ccccn2)no1` gave VCAM-1 rise 64 and 26S disassembly 1.1.
For CC1(C)Cc2noc(N)c2C(C)(C)N1O the results were VCAM-1 rise inactive and 26S disassembly -0.6.
For COc1ccc(-c2cc3nc4n(c(=O)c3s2)CCC4)cc1 the results were VCAM-1 rise inactive and 26S disassembly 0.0.
For O=C(CCS(=O)(=O)c1cccs1)NC1CCCCCC1 the results were 26S disassembly -0.2.
Screening CC1=C(C(=O)Nc2ccc(F)cc2)C(c2cccc(C)c2)n2nc(CCCO)nc2N1 (configuration not stated) returned VCAM-1 rise inactive and 26S disassembly -0.4.
For CCCCN=CC1=C(O)C(C(=O)OC)C(C)(C)CC1=O (configuration not stated) the results were VCAM-1 rise inactive and 26S disassembly -2.7.
`COc1ccc(CNC(=O)CN(c2cc(C)cc(C)c2)S(=O)(=O)c2c(C)noc2C)cc1` gave 26S disassembly 0.2.
`O=C(Nc1nnc(-c2ccccc2)o1)Nc1ccccc1Cl` gave 26S disassembly -0.3.
Screening CCOC(=O)N1CCN(C(=O)CCc2c(C)nc3c(c(C)nn3-c3ccc(C)c(C)c3)c2C)CC1 returned VCAM-1 rise inactive and 26S disassembly 1.7.
Cc1cc(NC(=O)C2CCCN(S(=O)(=O)c3c(C)noc3C)C2)no1 (configuration not stated) was read as 26S disassembly 0.6.
For CCn1c(=O)cc(OCC(=O)Nc2ccccc2N2CCN(C)CC2)c2ccccc21 the results were 26S disassembly -1.9.
Cc1onc(-c2ccccc2)c1C(=O)Nc1ccc(OC(C)C)cc1 was read as 26S disassembly -0.1.
Cc1ccc(-n2c(SCC(=O)Nc3nccs3)nc3c(c2=O)SCC3)cc1 was read as 26S disassembly 0.8.
CCOC(=O)c1sc(=NC(=O)c2ccc(OC)c(OC)c2)n(C)c1C was read as VCAM-1 rise inactive and 26S disassembly -2.2.
For COC(=O)c1ccc2c(c1)nc(C)n2CCO the results were VCAM-1 rise inactive and 26S disassembly -1.4.
Screening OC1(c2cccc(C(F)(F)F)c2)CCN(c2ccc(-c3ccccc3)nn2)CC1 returned VCAM-1 rise inactive and 26S disassembly 0.6.
CC(=O)N1CCc2cc(Br)cc(S(=O)(=O)NCC3CCCO3)c21 (configuration not stated) was read as 26S disassembly -1.8.
`CN1CCN(CCCNC(=O)Nc2cccc3ccccc23)CC1` gave 26S disassembly -1.1.
`COC(=O)c1cccc(C(=O)Nc2ccc(C)cc2Br)n1` gave 26S disassembly -0.1.
For Cc1ccc(C)c(N2CCN(C(=O)c3cc4ccccn4n3)CC2)c1 the results were VCAM-1 rise inactive and 26S disassembly 0.9.
Screening CCOC(=O)c1[nH]c(C)c(C(=O)N2CCc3ccccc32)c1C returned 26S disassembly -0.6.
For O=c1cc(C(F)F)oc2c1ccc1ccccc12 the results were VCAM-1 rise 97* and 26S disassembly 0.6.
Screening COc1ccc(NC(C)=O)cc1NC(=O)CN1CCN(CC(=O)Nc2ccc(Cl)cc2)CC1 returned 26S disassembly -0.1.
For Cc1ccc(S(=O)(=O)Cc2ccc(C(=O)N3CCN(Cc4ccccc4)CC3)o2)cc1 the results were VCAM-1 rise inactive and 26S disassembly 1.3.
`Cc1occc1-c1nnc(SCC(=O)N2CCOCC2)n1Cc1ccco1` gave VCAM-1 rise inactive and 26S disassembly -4.5.

In the list so far, 5 contain a Cl atom.
For Cc1ccnc(NC2c3ccccc3C(=O)N2Cc2ccccc2Cl)c1 (configuration not stated) the results were 26S disassembly -1.0.
Screening O=C(O)c1[nH]c2ccc(Cl)cc2c1CC(=O)N1CCN(C(=O)c2ccco2)CC1 returned VCAM-1 rise inactive and 26S disassembly 0.1.
For CN(C)CCCNC(CC(=O)Nc1ccc(Cl)cc1)C(=O)O (configuration not stated) the results were 26S disassembly 1.4.
`O=C(Nc1nnc(-c2ccccc2)o1)Nc1ccccc1Cl` gave 26S disassembly -0.3.
Screening COc1ccc(NC(C)=O)cc1NC(=O)CN1CCN(CC(=O)Nc2ccc(Cl)cc2)CC1 returned 26S disassembly -0.1.

Additional compounds
For CC(=O)c1c(N)n(C)c(=O)n(C)c1=O the results were 26S disassembly 0.3.
CCOC(=O)c1cc(CC)sc1NC(=O)COC was read as VCAM-1 rise inactive and 26S disassembly -1.8.
CC(NC(=O)COc1ccccc1)C(=O)NC1=NCCS1 (configuration not stated) was read as VCAM-1 rise inactive and 26S disassembly -0.9.
`O=C(CCCNS(=O)(=O)c1cccc2nsnc12)NCCc1ccccc1` gave 26S disassembly -0.5.
Screening C=CCn1c(=O)/c(=C/c2ccc(O)cc2)s/c1=C(/C#N)c1nnc2n1CCCCC2 returned VCAM-1 rise inactive and 26S disassembly 7.0.
`CC1(C)CC(=O)C2=C(C1)N(CCN1CCOCC1)C1=C(C(=O)CC(C)(C)C1)C2c1cccc(F)c1` gave 26S disassembly -0.6.
Screening COc1ccccc1-n1c(CNC(=O)c2ccc(S(=O)(=O)N3CCOCC3)cc2)n[nH]c1=S returned 26S disassembly 1.8.
`O=c1[nH]c(NC2CCCCC2)nnc1Cc1ccccc1` gave 26S disassembly 1.9.
`COc1cc2c(cc1OC)C(c1ccc(C)o1)CC(=O)N2` (configuration not stated) gave VCAM-1 rise inactive and 26S disassembly 0.8.
Cc1nc2ccccc2n1S(=O)(=O)N(C)C was read as 26S disassembly -4.0.
For COc1cc(NS(=O)(=O)c2ccc(NC(=O)CSC3=NCCS3)cc2)nc(OC)n1 the results were 26S disassembly 4.4.
Screening COc1ccccc1NC(=O)N1CCCC1C(=O)NC1CCCCC1 (configuration not stated) returned VCAM-1 rise inactive and 26S disassembly -0.9.

Screens deposited in PubChem BioAssay by several laboratories.
